Compound activity (PubChem)
Biofilm kill mix: clotrimazole potentiators killing C. albicans biofilm, primary screen, 4-compound mixtures | C. albicans biofilm persisters + clotrimazole, fluorescence viability; primary screen in compound mixtures of four per well | inhibition, % at 7.6 µM | hit rate 0.02% among 120,000 | AID 1242, 2008;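 active means inhibition above 30.3% in the primary screen of four-compound pools, then above 30% when the compound was retested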;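 further: compounds exposed to preformed 24 h biofilms for 48 h; the number belongs to the whole pool; some results filed as inactive read as strong as hits; inactives centre near 12; 0% = biofilm with clotrimazole alone and 100% = kill control; retested singly at about 60 µM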
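Assay system: C. albicans biofilms / Medium: RPMI/MOPS medium, pH 7.0 / Schedule: biofilm formation 24 h, compound exposure 48 h, 37 °C / Measured by: Alamar Blue fluorescence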
* hit, by the source's call.

The first two compounds, ahead of the listing:
Compound	Biofilm kill mix
COc1ccc(-c2cc(C(=O)NN)n(-c3ccccc3)n2)cc1	17
C/C=C/c1ccc(OCCN2CCc3ccccc3C2)c(OC)c1	13

The listing (from the top)
Compound	Biofilm kill mix
COc1ccc(-c2cc(C(=O)NN)n(-c3ccccc3)n2)cc1	17
C/C=C/c1ccc(OCCN2CCc3ccccc3C2)c(OC)c1	13
CC(=O)Nc1cccc2c1C(=O)N(c1cccc(OC(C)=O)c1)C2=O	16
Cc1cc(C)c(C)c(S(=O)(=O)N2CCCCC2C(=O)O)c1C (stereo unspecified)	17
COc1ccc2c(c1)c(=O)oc1c(C)c(OCc3cc(C(=O)O)oc3C)ccc12	-6
O=C(Nc1ccccc1)c1cnc2ccccc2n1	7
Cc1cc(C)c[n+](CC(=O)c2ccc(NC(=O)c3ccccc3)cc2)c1	-1
CSc1ccc(C(=O)/C=C/c2ccc(N)cc2)cc1	11
COc1ccccc1N1CCN(C(=O)CCSCc2ccccc2F)CC1	19
CN(C)C(=O)c1cn(-c2ccc(Cl)cc2)c(=O)c2ccccc12	13
Cc1ccc(-n2ncc3c(=O)[nH]c(SCC(=O)N4CCN(c5ccccc5)CC4)nc32)cc1	20
COc1cc(OC)c(OC)cc1CN1CCCC(C(=O)c2ccc3c(c2)OCO3)C1 (stereo unspecified)	9

(continued)
Compound	Biofilm kill mix
NC(=O)c1ccsc1N	18
Cc1ccc(NC(=O)Nc2ccc3c(c2)N(C)C(=O)CS3)nc1	12
Cc1ccc(OCC(=O)Nc2ccc3c(c2)OCO3)c([N+](=O)[O-])n1	16
O=C1CSC(c2ccccn2)N1c1ccc(Br)cc1 (stereo unspecified)	0
CCNC(=S)N/N=C(\C)c1ccc(Cl)s1	8
O=C(CSC(=S)N1CCOCC1)Nc1ncc2c(n1)CCCC2=O	11
Cc1noc(C)c1COc1ccc(C(=O)Nc2cccnc2)cc1	20
CC/C(=N\NC(=O)c1ccc(N(C)C)cc1)c1ccccc1	6
Cn1c(N)c(C(c2ccccc2)c2c(N)n(C)c(=O)n(C)c2=O)c(=O)n(C)c1=O	-8
CCc1ccc(S(=O)(=O)NCCc2csc(C)n2)s1	7
COc1ccc(N2C(=O)[C@@H]3[C@H](C2=O)[C@H](C(C)=O)N2c4ccccc4C=C[C@@H]32)cc1	18
O=C(O)/C=C/C(=O)NNC(=O)c1ccc(Br)cc1	8

As a short view, some entries already given:
Compound	Biofilm kill mix
O=C(CSC(=S)N1CCOCC1)Nc1ncc2c(n1)CCCC2=O	11
Cc1noc(C)c1COc1ccc(C(=O)Nc2cccnc2)cc1	20
CC/C(=N\NC(=O)c1ccc(N(C)C)cc1)c1ccccc1	6
Cn1c(N)c(C(c2ccccc2)c2c(N)n(C)c(=O)n(C)c2=O)c(=O)n(C)c1=O	-8

Additional compounds:
Compound	Biofilm kill mix
CCc1ccc(NC(=O)C[n+]2cc(-c3ccc(C)cc3)n3c2CCC3)cc1	25
CCOC(=O)c1ccc(Nc2cc(C)nc3nc(C)nn23)cc1	5
COc1cccc(-c2noc(-c3ccoc3C)n2)c1	25
COc1ccc(-c2onc(C)c2-c2ccc3c(c2)OCCO3)c(O)c1	9
CCOC(=O)NC(=O)/C(C#N)=C/c1ccc(N(C)C)cc1	20
CCOC(=O)CC(NC(=O)Cn1nnc(-c2ccccc2F)n1)c1ccc(OC)cc1 (stereo unspecified)	23
COc1ccc(N=C2SC(CC(=O)Nc3ccccc3)C(=O)N2CCN2CCOCC2)cc1 (stereo unspecified)	18
CCOc1ccc(/C=C/C(=O)c2cc(Br)ccc(=O)c2O)cc1	18
O=C(CN1CCN(c2ccc(Cl)cc2[N+](=O)[O-])CC1)N1CCOCC1	11
COc1ccc(N2CCN(C3=CC(=O)N(c4cccc(Cl)c4)C3=O)CC2)cc1	9
Cc1ccc(S(=O)(=O)N2CCCCC2)cc1NC(=O)CSCC(=O)O	-9
COC(=O)c1ccc(CN2[C@H](C(=O)OC)C[C@@]3(O)[C@H](O)[C@H](O)[C@H](O)C[C@@H]23)cc1	14

Additional structures.
Compound	Biofilm kill mix
CN(C)CCN=c1cc(-c2ccccc2)oc2ccc(Cl)cc12	19
Fc1ccc(NCc2nnc(SCc3ccccc3)o2)cc1	9
CCOC(=O)CNc1nc(Cl)nc(N2CCCCC2)n1	18
O=C(CSc1nc2ccccc2n1CCc1ccccc1)c1ccc(O)c(O)c1	5
N#Cc1c(N2CCOCC2)nc(N)c2c(N)nc3c(c12)CC(CCl)O3 (stereo unspecified)	14
Cc1cc(C)cc(C(=O)NCC(=O)OCC(=O)N2CCN(S(=O)(=O)c3ccc4ccccc4c3)CC2)c1	5
O=c1c2ccccc2c(-c2n[nH]c(=S)o2)nn1Cc1ccccc1	-4
Cc1nc(C(=O)NCc2ccccc2)sc1C1(C)CC(c2cccc([N+](=O)[O-])c2)=NO1 (stereo unspecified)	3
O=C(/C=C/c1ccccc1)Nn1cnc2ccccc2c1=O	14
CC(=O)Nc1cccc(C(=O)N/N=C/c2ccc(F)cc2)c1	18
O=C(Nc1ccc(N2CCN(c3ncccc3C(F)(F)F)CC2)nc1)c1cccs1	12
COc1ccc(CNCCNC(=O)c2nonc2N)cc1OC	7

(further entries)
Compound	Biofilm kill mix
CCC(C)(C)C1CCC(=NNc2nc3ccccc3[nH]2)CC1 (stereo unspecified)	14
O=C(CCCOc1ccc(Cl)cc1Cl)N/N=C/c1cccc([N+](=O)[O-])c1	13
CN(c1ccc(C(=O)NCc2ccc3c(c2)OCO3)cc1)S(=O)(=O)c1ccccc1	12
Nc1c(C(=O)c2ccccc2O)cnn1-c1ccc(S(=O)(=O)N2CCOCC2)cc1[N+](=O)[O-]	10
O=C(O)c1ccc2nc3c(nc2c1)-c1ccccc1C3=O	18
CN1CCC(NC(=S)Nc2cccc([N+](=O)[O-])c2)CC1	5
CCOC(=O)c1c(NC(=O)C(C)N2CCN(S(=O)(=O)c3cccs3)CC2)sc2c1CCC(C)C2 (stereo unspecified)	15
CCc1cccc2c(C(=O)COC(=O)/C=C/c3ccccc3OC)c[nH]c12	11
C#CC[N+](C)(C)CCCCCCCCCCCC	19
N/C(=N\OC(=O)CCN1C(=O)c2ccccc2C1=O)c1ccccn1	10
CCC(CC)NC(=O)c1cccc(Oc2ccccc2)c1	7
CC(=O)Nc1ccc(NC(=O)C2CC(=O)N(Cc3ccccc3)C2)cc1 (stereo unspecified)	22

More structures.
Compound	Biofilm kill mix
Nc1ccc(N2CCN(c3ccccc3)CC2)c(F)c1	21
CCOC(=O)C1=C(c2ccccc2)NC(=S)NC1c1cccc([N+](=O)[O-])c1 (stereo unspecified)	10
CC(=O)Nc1ccc(NC(=O)C2CCCN2C(=O)Nc2ccc(F)c([N+](=O)[O-])c2)cc1 (stereo unspecified)	7
O=C(NNC(=O)c1ccccc1O)c1ccco1	23
CCOc1ccccc1NC(=O)c1cc(C(=O)Nc2ccccc2OCC)cc(N2C(=O)CCC2=O)c1	22
Cc1ccc(OCC(=O)O/N=C(\N)c2cccc([N+](=O)[O-])c2)cc1C	18
Cc1ccc(S(=O)(=O)N(C)c2ccc(OCC(=O)Nc3nc(-c4ccccc4)cs3)cc2)cc1	24
CCOC(=O)C1(Cc2cccc(OC)c2)CCN(Cc2csc(C(C)=O)c2)CC1	12
S=C(Nc1ccccc1)N1N=C(c2cccs2)CC1c1cccs1 (stereo unspecified)	10
CC1=CC(c2ccc(Cl)cc2)n2nc(NC(=O)CCC(=O)O)nc2N1 (stereo unspecified)	17
COc1ccc(NC(=O)Cc2c(C(=O)O)n(C)c3ccccc23)cc1OC	12
COc1ccc(CN(C(=O)CSc2nnc(-c3ccccc3C)o2)c2ccc(F)cc2)cc1	-6

(next part)
Compound	Biofilm kill mix
Cc1[nH]c(=O)[nH]c1C(=O)CCCCC(=O)O	4
CN(C)CCCNc1nc(-c2ccccc2)c2c(c1C#N)CC(C)(C)OC2	11
C[C@@H]1CC=C[C@H]2[C@H]1C(=O)N(Cc1ccccc1)[C@H]2c1ccc(F)c(Br)c1	16
Cc1ccc(S(=O)(=O)c2ccccc2)cc1S	29
Nc1ncc(N=Nc2cc(C(=O)O)ccc2Cl)s1	-2
CC(C)N1CCc2c(sc(NC(=S)NC(=O)c3ccccc3)c2C#N)C1	14
Cc1ccc(NC(=S)NC(C)(C)C)c([N+](=O)[O-])c1	4
COc1ccc(/C=C2\SC(=O)N(CCNC(=O)Cc3coc4cc(C)ccc34)C2=O)cc1OC	5
O=c1nc2cccc3c2=c(/c1=C(\O)c1ccccc1)c1ccccc1c3=O	-1
Cn1c(CN2CCCCC2)nc2cc(NS(=O)(=O)c3ccc(F)cc3)ccc21	-3
Nn1c(SCc2cccc(Oc3ccccc3)c2)nnc1C(F)(F)F	13
NS(=O)(=O)c1ccc(NC(=O)CN2CCN(S(=O)(=O)/C=C/c3ccccc3)CC2)cc1	18

(list continues)
Compound	Biofilm kill mix
Cc1ccc(S(=O)(=O)N(C)Cc2ccc(C(=O)N/N=C3\CC(=O)CC(C)(C)C3)cc2)cc1	7
CCOC(=O)Cn1ncn(-c2ccc(OC(F)(F)F)cc2)c1=O	5
COCCCNC(=S)NNC(=O)c1cc(Cl)c(O)c(Cl)c1	13
Cc1ccccc1-n1nnnc1SC(C)C(=O)NC1CCCc2ccccc21 (stereo unspecified)	14
O=C(CN1CCN(Cc2ccccc2)CC1)Nc1ccc([N+](=O)[O-])cc1C(=O)Nc1ccccc1F	4
CCCCNC(=O)c1ccc2c(SCC(=O)O)c3c(nc2c1)CCCC3	0
O=C1NC(c2ccc(Cl)c([N+](=O)[O-])c2)Nc2ccccc21 (stereo unspecified)	-1
O=C(NCCCN1CCCC1=O)c1ccc2c(=O)n(-c3ccccc3F)c(=S)[nH]c2c1	14
CCOC(=O)C1CCN(S(=O)(=O)c2ccc(-c3cc(C(F)(F)F)n(C)n3)s2)CC1	17
O=S1(=O)CCN(Cc2ccccn2)CC1	25
COc1ccc(SCC(=O)Nc2ccc(N3CCN(C)CC3)c(F)c2)cc1	12
CC(C)Nc1ccc(C(CC(N)=O)NC(=O)c2ccc(Br)cc2)cc1[N+](=O)[O-] (stereo unspecified)	14

(list continues)
Compound	Biofilm kill mix
Cc1ccc(NS(=O)(=O)c2cc(NC(=O)c3ccc4c(c3)NC(=O)CS4)ccc2C)c(C)c1	10
CC(C)C(C(=O)O)N1C(=O)/C(=C/c2cccn2C)SC1=S (stereo unspecified)	9
CCOC(=O)C(=O)c1cn(C2OCC(OC(C)=O)C(OC(C)=O)C2OC(C)=O)c2ccccc12 (stereo unspecified)	11
COc1cccc(NC(=O)NCCC2=CCCCC2)c1	16
Cc1ccc(S(=O)(=O)NC(=O)c2ccc(Br)o2)cc1	17
CS(=O)(=O)N(CC(=O)Nc1ccc(S(=O)(=O)N2CCOCC2)cc1)c1cccc(F)c1	11
O=C(CCn1cnc2ccccc21)N=Nc1c(O)[nH]c2ccccc12	16
COc1ccccc1NC(=O)c1c(C)oc2c1CCCC2	8
CCc1sc(/C=C(/C#N)C(N)=S)cc1[N+](=O)[O-]	-11
COc1cc(OC)cc(-c2cc(N)n(S(=O)(=O)c3cccc4nsnc34)n2)c1	33
COc1ccccc1NS(=O)(=O)c1cccc(C(=O)NN=C2CCCCCC2)c1	18
Cc1ccc(-c2csc3ncnc(N4CCc5ccccc5C4)c23)cc1	15

(next part)
Compound	Biofilm kill mix
O=C(CSc1nnc(NC(=O)c2ccco2)s1)NCc1ccc2c(c1)OCO2	0
O=C(Cn1nnc2ccccc2c1=O)NCC1CCC(C(=O)O)CC1 (stereo unspecified)	28
CCCN(Cc1ccccc1)C(=S)Nc1ccc(OC(F)F)cc1	15
CC(C)CNC(=O)COC(=O)c1ccc(F)cc1Cl	8
COc1ccc2c(=O)c3c(=O)n(Cc4ccco4)c(-c4cc(OC)c(OC)c(OC)c4)nc3oc2c1	21
COc1ccc(CCn2c(-c3ccc(Cl)cc3)n[nH]c2=S)cc1OC	1
O=C(CCNc1ccc(F)cc1)c1cc2ccccc2o1	9
O=C(NNC(=S)Nc1ccc(Br)cc1)c1ccc(N2CCOCC2)c([N+](=O)[O-])c1	20
COC(=O)c1ccc(Oc2cc(C)nc(Cl)n2)cc1	18
COCc1[nH]c(=S)c(C#N)cc1C(=O)OC	16
CC(=O)OC1CSC2c3ccccc3C(=O)N2Cc2sccc21 (stereo unspecified)	15
O=C(Nc1nc(-c2ccccn2)cs1)c1cccc(-n2cnnn2)c1	14

(next part)
Compound	Biofilm kill mix
COC(=O)CCC(=O)NC(=S)Nc1c(C)cccc1C	10
O=C(NCc1ccc(F)cc1)C1CCN(S(=O)(=O)N2CCCC2)CC1	14
CCCNC(=O)COc1ccccc1[N+](=O)[O-]	14
O=C(NC(=S)N(CCO)Cc1ccccc1)c1ccc(S(=O)(=O)N2CCCC2)cc1	6
COCCCNC(=O)CN1C(=O)/C(=C/c2ccccc2C)Sc2ccccc21	16
Oc1ccc(O)c(-c2cnns2)c1	14
O=C(OCC(=O)c1ccc(Cl)s1)c1ccccn1	8
O=C1NNC(c2ccccc2)=N/C1=C\c1ccc(Cl)cc1	0
Cc1scc(C(=O)O)c1-c1c(C(=O)O)csc1C	-9
C=CCn1c(=N)n(CC(=O)c2ccc(OC)cc2)c2ccccc21	16
CCCOc1ccc(-c2nc(-c3ccc(N)cc3)cs2)cc1	10
O=C(NCc1ccc(F)cc1)C1CCCN(c2nc3ccsc3c(=O)s2)C1 (stereo unspecified)	1
CCN(CC)C(=O)Oc1ccc2ccccc2c1Br	7
CC(C)(C)NC(=O)Cn1c(SCC(=O)Nc2nccs2)nc2ccccc21	16

An excerpt. The share of hits here may be higher or lower than overall.
